Mtb betalactam – beta-lactam sensitization of Mtb H37Rv; M. tuberculosis H37Rv growth with meropenem, percent inhibition; hits of this screen are not shown here; inhibition, % at 25 µM; actives 0.27% (n = 330,000);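 active = about 74% or more and at least 40 points above the plate without the antibiotic, then above 30% in a dose series; inconclusive = first-round hits that could not be retested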;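 note: growth measured after seven days incubation then overnight dye step; 0% = bacteria only wells and 100% = bacteria with antibiotic; twin plates without the antibiotic show which effects depend on it; some results filed as inactive read as strong as hits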
Mtb growth – M. tuberculosis H37Rv growth inhibitors, H37Rv strain (AID 1626) | one-dose inhibition, % at 10 µM; IC50 in µM for titrated hits | M. tuberculosis H37Rv growth inhibition; higher % means a stronger effect | actives 0.95% (n = 220,000);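 active = confirmed in a dose series; inconclusive = inhibition above 80% but not taken into the dose series; inactive = below 80% or under 30% at every dose of the series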;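 note: bacteria incubated seven days before Alamar blue readout; 0% = bacteria only wells and 100% = bacteria with antibiotic wells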
RecA splice inh – blocks M. tuberculosis RecA intein splicing. P9WHJ3. cell-free RecA intein splicing, fluorescence. inhibition, %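 (about 9 µM by stock and volumes)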. actives 0.75% (n = 290,000). AID 2221; in the data active = inhibition above about 30%; inconclusive = no clear call, values can overlap the other calls;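 note: 0% = vehicle wells and 100% = reference inhibitor control wells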
Target sequence (P9WHJ3 whole entry, looked up, canonical isoform): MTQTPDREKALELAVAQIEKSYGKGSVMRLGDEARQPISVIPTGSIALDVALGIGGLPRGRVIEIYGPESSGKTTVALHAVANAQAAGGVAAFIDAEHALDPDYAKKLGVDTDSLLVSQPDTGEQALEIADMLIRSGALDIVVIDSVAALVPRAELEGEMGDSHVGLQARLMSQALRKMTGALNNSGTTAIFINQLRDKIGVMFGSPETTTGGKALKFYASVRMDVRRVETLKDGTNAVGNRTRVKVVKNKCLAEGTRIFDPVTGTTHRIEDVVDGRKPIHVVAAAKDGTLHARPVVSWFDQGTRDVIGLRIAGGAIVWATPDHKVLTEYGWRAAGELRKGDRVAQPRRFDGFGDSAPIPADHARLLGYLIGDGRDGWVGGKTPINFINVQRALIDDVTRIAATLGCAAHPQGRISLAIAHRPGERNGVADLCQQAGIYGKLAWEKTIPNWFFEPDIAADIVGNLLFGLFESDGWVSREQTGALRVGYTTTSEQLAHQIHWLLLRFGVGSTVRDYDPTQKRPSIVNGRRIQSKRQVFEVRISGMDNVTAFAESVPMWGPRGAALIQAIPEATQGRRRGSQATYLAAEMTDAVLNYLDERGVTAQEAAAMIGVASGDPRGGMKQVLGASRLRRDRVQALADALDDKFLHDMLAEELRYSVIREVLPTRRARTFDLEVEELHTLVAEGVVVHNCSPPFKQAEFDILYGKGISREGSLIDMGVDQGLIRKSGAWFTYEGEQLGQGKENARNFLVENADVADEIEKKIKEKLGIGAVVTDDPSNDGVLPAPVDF
YopH inh – YopH (Yersinia) phosphatase inhibition. fluorescence Ex485/Em525. inhibition, %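 (about 10 µM by stock and volumes)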. actives 0.16% (n = 140,000);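 active = inhibition of 50% or more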;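 note: controls were vehicle for no effect and minimum signal wells for full effect; inactives centre near -20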
Arbovirus inh – blocks arbovirus infection. arbovirus infection cell-based antiviral screen. actives 0.37% (n = 200,000). AID 1251. inhibition, % at 10 µM;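 active = inhibition from about 30%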;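 note: bluetongue infection of BSR cells; cell survival read as ATP light after 72 h; 0% = infected wells without compound and 100% = uninfected wells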
Arbovirus inh repeat – second read-out of Arbovirus inh, no call of its own (marks repeat the call); inhibition, %; measured here: 10K subset replicate screen; many hits read low in the repeat;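 first of two repeat runs on a subset; 0% = infected and 100% = uninfected wells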
Numbers without * were called inactive; u = inconclusive; x = not tested or not shown. The list is partial; count on the stated rates, not on these rows.

SMILES	Mtb betalactam	Mtb growth	RecA splice inh	YopH inh	Arbovirus inh	others
CC(C)C(NS(=O)(=O)c1ccc2c(c1)C(C)(C)C(=O)N2C)C(=O)NCc1ccc(F)cc1 (stereo not given)	u	x	-0.7	x	x
CCS(=O)(=O)N1CCC(C(=O)Oc2ccccc2Br)CC1	7.2	x	0.6	x	x
Cc1ccc(C)c(S(=O)(=O)NC(CC(C)C)C(=O)O)c1 (stereo not given)	-1.3	x	1.0	-34.1	3.7	Arbovirus inh repeat=1.1
O=C(Nc1ccc(F)cc1)C(=O)c1cn(CC(=O)N2CCOCC2)c2ccccc12	2.2	x	-4.6	x	x
CON1C(=O)C(=O)N(OC)C2CCCCCC21 (stereo not given)	-1.1	-2.8%	1.2	-30.4	-4.9
COCCNc1nc(C)cc(-c2cc(C(=O)Nc3ccccc3)on2)n1	4.1	-10.8%	2.0	x	x
O=C(O)CSc1nnc2c(n1)[nH]c1ccccc12	-3.4	-2.8%	x	x	-3.8
O=C(/C=C/Nc1ccccc1F)c1cccs1	-7.3	4.7%	-0.5	-27.1	-4.3
COc1cc(CCC(=O)Nc2nccs2)cc(OC)c1OC	8.4	x	2.2	x	x
O=C(CNC(=O)c1ccccc1F)NCCc1ccc(Cl)cc1	-2.0	x	1.4	x	x
COc1ccccc1-c1cc(C(=O)NN)[nH]n1	1.4	5.2%	-1.8	x	x
CC1CCN(C(=O)C2(NC(=O)Nc3cccc(F)c3)CCCCC2)CC1	-4.3	4.4%	x	-24.7	1.5
O=C(O)c1ccc(S(=O)(=O)c2ccc3c(c2)C(=O)N(c2ccc(Br)cc2)C3=O)cc1	-3.6	x	2.5	x	x
CCOc1cc(C)c(Cl)cc1S(=O)(=O)n1nnc2ccccc21	2.0	-16.1%	-5.1	2.8	-6.0
C/C(=N\NC(=O)c1cccc(S(=O)(=O)N2CCCCC2)c1)c1ccc(C)o1	-2.6	-5.4%	-1.3	x	-2.5
O=C(Cn1cnc2sc(-c3ccccc3)cc2c1=O)NCc1ccco1	-5.4	-8.7%	x	-17.7	-20.6
CCC(=O)Nc1ccc(C(=O)Nc2cccc(C)n2)cc1	5.8	1.7%	-0.2	x	7.3
Cn1cc(CN(Cc2ccccc2)C[C@@H]2CCC(=O)N2)c(-c2ccccc2F)n1	5.6	-4.4%	3.5	x	-6.0
CCOc1ccc(OCc2ccc(C(=O)NCc3cccnc3)o2)cc1	-2.0	-7.2%	0.3	-4.5	0.8
CC(C)(C)NC(=O)c1sccc1C(=O)O	-4.0	-0.5%	-2.5	-41.7	6.9
NCCc1c[nH]c2ccc(OCc3ccccc3)cc12	1.1	7.5%	8.3	x	x
COc1ccccc1NC1CCCCC1NS(=O)(=O)c1ccccc1 (stereo not given)	3.0	x	-1.3	x	x
COc1ccccc1NC(=O)c1ccc(NC(=O)Cc2n[nH]c(=O)c3ccccc23)cc1	6.4	9.8%	-2.7	x	x
COc1cccc(N2C(=O)NC(=O)C3(Cc4cc(C)ccc4N(C)C3)C2=O)c1 (stereo not given)	18.7	-1.9%	x	-4.3	1.4
C=CCNC(=S)N1CCN(Cc2ccc3c(c2)OCO3)CC1	-6.4	x	-7.3	x	x
CC(=O)Nc1nc(-c2ccc3ccccc3c2)cs1	45.7	x	1.3	x	x
COc1ccccc1C(=O)Nc1nnc(S(=O)(=O)N2CCCCCC2)s1	2.5	x	-0.4	x	x
COc1ccc(NC(=O)CNc2cccc(C#N)c2)cc1Cl	63.0	-9.7%	1.2	-30.6	-1.3
Cc1oc(=O)c(NC(=O)c2ccccc2)cc1C(C)O (stereo not given)	7.8	3.2%	2.7	x	-2.6
CCOC(=O)c1ccc2c(c1)nc(SCC(=O)N1CCOCC1)n2CC	-4.4	-0.2%	0.5	x	3.5
N#Cc1cc(-c2ccccc2)c[nH]c1=O	4.0	-1.4%	2.4	-24.9	7.3
CCC(=O)Nc1c(C(=O)N2CCCCCC2)cnn1-c1ccc(C)c(C)c1	8.2	3.8%	3.1	-26.3	8.4
CCOc1cc(/C=N/NC(=O)Nc2ccccc2)ccc1O	-7.2	-8.8%	-2.5	x	-1.8
CN(C)c1ccc(-c2sc(Nc3ccccc3)n[n+]2-c2ccc(F)cc2)cc1	2.2	x	-6.8	x	x
O=C1C2CC=CCC2C(=O)N1c1ccc(NCCc2ccc(O)cc2)c([N+](=O)[O-])c1 (stereo not given)	2.4	12.5%	2.3	-28.2	9.4
COc1cccc(-c2ccc(NC(=O)C3CCCN(CCCn4cccn4)C3)cc2)c1 (stereo not given)	-8.1	x	3.4	x	x
CCOc1ccccc1NC(=O)c1ccc(-n2cncn2)nc1	2.2	-1.1%	-2.1	x	3.5
COc1ccc(/C=N/NC(=O)c2cccc(C(=O)N/N=C/c3ccc(OC)cc3)n2)cc1	7.8	x	-2.8	x	x
CCCn1cc(SCC(=O)Nc2cc(C)on2)c2ccccc21	-15.3	x	-1.1	x	x
O=C(Nc1ccc(S(=O)(=O)NCc2ccccc2)cc1)c1ccc(Br)o1	-1.6	10.8%	1.0	-0.4	-9.7

Some of these compounds in order of molar mass, smallest number first.
SMILES	Mtb betalactam	Mtb growth	RecA splice inh	YopH inh	Arbovirus inh	others
CON1C(=O)C(=O)N(OC)C2CCCCCC21 (stereo not given)	-1.1	-2.8%	1.2	-30.4	-4.9
CCOc1cc(C)c(Cl)cc1S(=O)(=O)n1nnc2ccccc21	2.0	-16.1%	-5.1	2.8	-6.0
CN(C)c1ccc(-c2sc(Nc3ccccc3)n[n+]2-c2ccc(F)cc2)cc1	2.2	x	-6.8	x	x

Continued:
SMILES	Mtb betalactam	Mtb growth	RecA splice inh	YopH inh	Arbovirus inh	others
CC(C)N(C(=O)CSc1nc2ccccc2n1Cc1ccc(F)cc1)C(C)C	13.4	-0.4%	2.8	-13.2	-7.6
O=C(Nc1ccc(NC(=O)C2CCCCC2)nc1)c1ccccn1	-5.1	0.5%	0.5	x	1.2
CCN(CC)S(=O)(=O)c1ccc(Cl)c(C(=O)NC)c1	-8.3	3.8%	1.7	-30.3	1.5	Arbovirus inh repeat=6.0
CC(C)(C)Cc1nnc(NC(=O)CSc2ccccc2)s1	1.3	x	0.4	x	x
O=C(N=C1SC2CS(=O)(=O)CC2N1Cc1ccc(Cl)cc1)C1CC1 (stereo not given)	-1.4	x	-4.0	x	x
COc1ccccc1NC(=O)Nc1ccc2[nH]c(=O)[nH]c2c1	-1.8	0.2%	-0.5	x	2.3
CCCCCCCOC(=O)C[N+](C)(C)CCOC1CC2CCC1(C)C2(C)C (stereo not given)	x	u	x	-8.8	-33.2
CN(C)CC(C)(C)CNS(=O)(=O)c1cccc(Cl)c1Cl	-9.1	-1.3%	-3.2	-0.2	-3.8
CCOc1cc(C(=O)NCc2ccccc2)ccc1OCC(=O)N1CCOCC1	-4.2	9.8%	-1.5	x	6.9
Cc1ccc(S(=O)(=O)N2CCN(c3ccc4nnc(-c5ccccc5)n4n3)CC2)cc1	x	12.3%	x	-34.3	-4.4
CCN(CC)S(=O)(=O)c1cccc(C(=O)Nc2cc(C)cc(C)c2)c1	1.4	-2.3%	-0.6	0.1	-27.4
COc1cccc(-c2cc(C(=O)Nc3ccncc3)c3ccccc3n2)c1	3.2	x	1.8	x	x
NC(=O)NC(c1ccccc1)c1ccccc1	0.8	-9.7%	-0.2	-19.8	-2.5
O=C(NCc1ccccc1Cl)c1cnn2cccnc12	-6.8	0.3%	-0.4	-10.6	4.6
O=C(CCNC(=O)c1ccccc1Cl)NCCC1=CCCCC1	4.4	x	-1.1	x	x
Cc1c(Cl)c([N+](=O)[O-])nn1CC(=O)N1CCN(C23CC4CC(CC(C4)C2)C3)CC1	14.1	x	1.8	x	x
Cc1ccccc1C(=O)c1cccn1CC(=O)NCCN1CCN(c2cccc(C)c2C)CC1	100.1	14.7%	9.3	7.2	-37.7
c1ccc(-c2ccnc3nc(N4CCN(c5ccccc5)CC4)nn23)cc1	-6.2	6.2%	-3.2	-29.6	-14.4
CCN1/C(=C2\C(=O)N(c3ccccc3)N=C2C)C=Cc2cc(C)ccc21	-3.8	-5.9%	x	-28.4	6.0
O=C(Nc1c2c(nc3ccccc13)CCCC2)c1ccccc1Br	5.1	-1.8%	-1.8	-4.1	-3.3
Cc1ccsc1C(=O)N1CCC(CO)(Cc2ccccc2)CC1	7.9	-1.4%	1.2	x	-4.5
CCCn1c(CNc2ccccc2O)nc2ccccc21	99.5	u	4.0	-17.7	-31.9
CC(C)OP(=O)(OC(C)C)C(NC(=O)c1ccccc1)C(N)=O (stereo not given)	-4.1	-10.4%	-1.8	x	x
Cc1cc(C)nc(N/N=C/C2=C(N3CCOCC3)C(=C/c3ccccc3)/CC2)n1	97.8	0.6%	-4.8	-37.8	0.7
Cc1ccn2cc(C(=O)Nc3ccc4c(c3)OCCO4)nc2c1	1.5	-12.9%	2.4	-18.4	-4.1
CCOc1ccc(Cc2noc3c2C(=O)CC(C)(C)C3)cc1OCC	-4.7	5.8%	-2.7	x	2.2
COC(=O)CC(NC(=O)Nc1ccc(C)cc1)c1cccc([N+](=O)[O-])c1 (stereo not given)	-4.1	1.4%	-5.1	x	0.0
O=C(/C=C/c1ccc(Cl)cc1)Nc1ccc(Br)cn1	3.0	7.4%	-1.7	x	-11.3
O=C(Nc1ccc2c(c1)OCCO2)c1cc2sccc2n1Cc1ccccc1	24.4	26.0%	x	-8.1	-0.1
Cc1ccc(S(=O)(=O)c2c(C)cc(C)[nH]c2=O)cc1	3.7	x	-3.3	x	x
CCOc1nc(Nc2ccc(OC)cc2)nc(OCC)n1	-0.4	11.2%	4.6	-6.7	-2.8
COc1ccc(CNC(=O)CN2C(=O)NC3(CCCCCC3)C2=O)cc1OC	-2.3	1.6%	-1.6	x	1.0
CCC1(CC)C(=O)C2=C3C1[C@H](C(=O)OC)C=C(C(=O)OC)C[C@H]3[C@H]1C(=O)N(CC(=O)OC)C(=O)[C@H]1[C@H]2C (stereo not given in full)	-8.8	-10.2%	0.0	x	x
Cc1cc(C)cc(C(=O)NC(=S)Nc2cccnc2)c1	-8.1	x	-1.7	x	x
COc1cc(/C=N/N2C(=O)c3ccccc3NC2(C)c2cccc([N+](=O)[O-])c2)cc(Br)c1O (stereo not given)	-12.4	-0.5%	-0.4	-32.8	11.6
Cc1c(NC(=O)CSc2ccc(Cl)cc2)c(=O)n(-c2ccccc2)n1C	3.7	1.2%	0.4	x	-1.5
O=C(CCC1COc2ccccc2O1)NCC1COc2ccccc2O1 (stereo not given)	-9.9	-0.1%	4.5	-29.5	1.8
O=C(NC1=NN(c2ccccc2)CC1)Nc1ccccc1F	95.8	19.1%	-1.5	x	x
O=C(NC1(C(F)(F)F)NC(=O)N(CCc2ccccc2)C1=O)C1CC1 (stereo not given)	-5.4	1.3%	2.1	-8.5	-8.3
c1cncc(CNc2nc(-c3cccnc3)nc3ccccc23)c1	5.2	x	0.3	x	x

Entries shown so far that have an aryl methoxy group:
SMILES	Mtb betalactam	Mtb growth	RecA splice inh	YopH inh	Arbovirus inh	others
COc1cc(CCC(=O)Nc2nccs2)cc(OC)c1OC	8.4	x	2.2	x	x
COc1ccccc1-c1cc(C(=O)NN)[nH]n1	1.4	5.2%	-1.8	x	x
COc1ccccc1NC1CCCCC1NS(=O)(=O)c1ccccc1 (stereo not given)	3.0	x	-1.3	x	x
COc1ccccc1NC(=O)c1ccc(NC(=O)Cc2n[nH]c(=O)c3ccccc23)cc1	6.4	9.8%	-2.7	x	x
COc1cccc(N2C(=O)NC(=O)C3(Cc4cc(C)ccc4N(C)C3)C2=O)c1 (stereo not given)	18.7	-1.9%	x	-4.3	1.4
COc1ccccc1C(=O)Nc1nnc(S(=O)(=O)N2CCCCCC2)s1	2.5	x	-0.4	x	x
COc1ccc(NC(=O)CNc2cccc(C#N)c2)cc1Cl	63.0	-9.7%	1.2	-30.6	-1.3
COc1cccc(-c2ccc(NC(=O)C3CCCN(CCCn4cccn4)C3)cc2)c1 (stereo not given)	-8.1	x	3.4	x	x
COc1ccc(/C=N/NC(=O)c2cccc(C(=O)N/N=C/c3ccc(OC)cc3)n2)cc1	7.8	x	-2.8	x	x
COc1ccccc1NC(=O)Nc1ccc2[nH]c(=O)[nH]c2c1	-1.8	0.2%	-0.5	x	2.3
COc1cccc(-c2cc(C(=O)Nc3ccncc3)c3ccccc3n2)c1	3.2	x	1.8	x	x
CCOc1nc(Nc2ccc(OC)cc2)nc(OCC)n1	-0.4	11.2%	4.6	-6.7	-2.8
COc1ccc(CNC(=O)CN2C(=O)NC3(CCCCCC3)C2=O)cc1OC	-2.3	1.6%	-1.6	x	1.0
COc1cc(/C=N/N2C(=O)c3ccccc3NC2(C)c2cccc([N+](=O)[O-])c2)cc(Br)c1O (stereo not given)	-12.4	-0.5%	-0.4	-32.8	11.6
